VDR inh = inhibitors of human vitamin D receptor; Potency, µM, for the others: max response, negative = inhibition, hits mostly inhibitors; 400,000 compounds, 0.93% hits; VDR-SRC2-3 peptide fluorescence polarization, 2 h; active = well fitted inhibition curve with a large enough effect; inconclusive = small, poorly fitted or top-dose-only effect, or another doubt; inactive = no such curve, though single readings can be large or run the other way; note: series mostly up to about 120 µM
Target sequence (P11473 whole entry, looked up): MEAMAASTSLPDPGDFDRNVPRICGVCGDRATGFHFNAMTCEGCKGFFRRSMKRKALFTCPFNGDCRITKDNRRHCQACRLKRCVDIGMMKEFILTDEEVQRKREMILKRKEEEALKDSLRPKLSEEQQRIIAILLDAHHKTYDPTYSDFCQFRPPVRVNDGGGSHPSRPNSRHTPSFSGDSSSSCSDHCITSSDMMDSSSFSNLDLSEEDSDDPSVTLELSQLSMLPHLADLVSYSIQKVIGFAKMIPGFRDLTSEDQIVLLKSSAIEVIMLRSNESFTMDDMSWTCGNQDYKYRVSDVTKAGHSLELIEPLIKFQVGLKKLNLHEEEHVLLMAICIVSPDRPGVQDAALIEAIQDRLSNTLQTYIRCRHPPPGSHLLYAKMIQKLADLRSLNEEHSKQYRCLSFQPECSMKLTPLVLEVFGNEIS
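Inhibition of the VDR/SRC2-3 peptide interaction is quantified by fluorescence polarization. Compounds (23 nl, pintool) incubate with the reagents for 2 hours at ambient room temperature.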
* = called active by the depositor. % is set by controls: 0 for no effect and ±100 for the full control effect; potency is the fitted concentration of half-maximal effect. An excerpt, so the mix of outcomes need not match the whole.

CCOC(=O)/C(N=Nc1c(C)n(C)n(-c2ccccc2)c1=O)=C(\C)O was read as VDR inh -1%.
`Cc1ccc(-c2nc3c4cnn(-c5cc(Cl)ccc5Cl)c4ncn3n2)cc1` gave VDR inh 3%.
Screening CC(=O)N1CCN(C(=O)c2cccc(NS(=O)(=O)c3ccc(Br)cc3)c2)CC1 returned VDR inh 8%.
COc1ccc(Cl)cc1NC(=O)CSc1nc(Nc2ccccc2)nc(N2CCOCC2)n1 was read as VDR inh 8%.
For O=C(OCc1nc2ccccc2s1)c1ccc(Br)o1 the results were VDR inh 19%.
`CCOC(=O)c1ccc(C(=O)OCC)c(NC(=S)Nc2ccc([N+](=O)[O-])cc2OC)c1` gave VDR inh 20%.
Cc1ccccc1OCC(=O)N/N=C/c1ccc2c(c1)OCCO2 was read as VDR inh 2%.
CCOC(=O)C1=C(C)N(C)C(C)=C(C(=O)OCC)C1c1ccccc1 was read as VDR inh -14%.
`O=S(=O)(NCCc1ccccn1)c1ccc(F)c(F)c1` gave VDR inh -8%.
Screening C[C@@H](NC(=O)c1[nH]cnc1C(=O)Nc1nccs1)c1ccccc1 returned VDR inh 6%.
Screening COc1cc([N+](=O)[O-])c(OC)cc1SCc1n[nH]c(=S)n1-c1ccc(F)cc1 returned VDR inh 11%.
`Cc1cc(CNC(=O)CCc2nnc(CCCCc3ccccc3)o2)nn1C` gave VDR inh 13%.
`CCCCCCCCN1[C@@H](CC(C)=O)c2cc(C(F)(F)F)ccc2S1(=O)=O` gave VDR inh -8%.
`CC(C)N(CCNC(=O)C1CCCN(c2ncnc3c2nc2n3CCCCC2)C1)Cc1ccccc1` (centres undefined) gave VDR inh -4%.
`OCC(Cc1ccccc1)NCc1ccccc1C(F)(F)F` (centres undefined) gave VDR inh -24%.
For O=C(COc1ccc(-c2ccccc2)cc1)NN=C1CCCC1 the results were VDR inh 2%.
O=C(N[C@H]1C/C=C\C[C@@H](CC(=O)N(CCO)Cc2ccccc2)C(=O)N2CCC[C@@H]2COC1=O)OCC1c2ccccc2-c2ccccc21 was read as VDR inh 6%.
O=C(CSc1nnc2scc(-c3ccccc3)n12)NCC1CCCO1 (centres undefined) was read as VDR inh 6%.
For CCCN(CC(=O)Nc1ccc(F)c(F)c1F)C(=O)c1ccc(N2CCCC2=O)cc1 the results were VDR inh -1%.
For CCc1ccccc1NC(=O)[C@H](Cc1ccccc1)N1Cc2ccccc2C1=O the results were VDR inh -14%.
`Cc1ccc(-c2noc(CCC(=O)NCc3ccco3)n2)cc1` gave VDR inh 0%.
Screening CCOc1cc(/C=C2\C(=O)N(Cc3ccc(C)cc3)C(C)=C2C(=O)OC)ccc1O returned VDR inh inconclusive.
`C#CCN1C(=O)S/C(=C\c2ccc(-c3ccc(C(=O)O)cc3C)o2)C1=O` gave VDR inh -12%.
`CCCCNC(=O)CCC(=O)Nc1ncc(-c2ccc(C)cc2)n1C` gave VDR inh -8%.
For NS(=O)(=O)c1ccc(NC(=O)C(=O)Nc2ccc3nc4n(c(=O)c3c2)CCCCC4)cc1 the results were VDR inh 6%.
`O=C(CSc1ccc2nnc(-c3ccc(Cl)cc3)n2n1)N1CCc2ccccc21` gave VDR inh 7%.
For Cc1ccc2c(C)c(C(=O)N3CCN(c4cnccn4)CC3)oc2c1C the results were VDR inh -10%.
For CC(C)=C1C2C=CC1C1C(=O)N(c3ccc4c(c3)OCO4)C(=O)C21 (centres undefined) the results were VDR inh 6%.
Screening Cc1[nH]n(-c2ccc([N+](=O)[O-])cc2)c(=O)c1C=NCC1CCCO1 (centres undefined) returned VDR inh 15%.
`Cc1ccc(S(=O)(=O)N(C)C[C@@H]2Oc3ccc(NC(=O)Cn4cnnn4)cc3C(=O)N([C@@H](C)CO)C[C@H]2C)cc1` gave VDR inh -2%.
Screening CCc1ccc(C(=O)COC(=O)C(Cc2ccccc2)NC(=O)c2ccc(Cl)cc2)cc1 (centres undefined) returned VDR inh -1%.
Screening O=C(O)COc1ccc2c(c1)O/C(=C\c1cccs1)C2=O returned VDR inh 0%.
For Cc1cccc(NC(=O)Nc2ccc3c(c2)N(C)C(=O)CS3)n1 the results were VDR inh -12%.
Cc1ccc(-c2csc3nc4c5ccccc5c(NCCCN(C)C)nn4c(=O)c23)cc1 was read as VDR inh -12%.
CC(C)OC(=O)CSc1nnc(-c2ccc(Cl)cc2Cl)o1 was read as VDR inh 12%.
`Cc1ccc(S(=O)(=O)N[C@H](C(=O)N2CCC(C(=O)N[C@H](C(=O)O)c3ccccc3)CC2)C(C)C)cc1` gave VDR inh -2%.
CC[C@H](C)[C@@H](NC(=O)O[C@@H]1Cc2cc(Br)ccc2O[C@H]1c1cccc(OC)c1)C(=O)OC was read as VDR inh -5%.
Screening O=C(CSc1nc2ccccc2c(=O)n1Cc1ccc(F)cc1)NCc1cccs1 returned VDR inh -7%.
`Cc1cnc(C(=O)OCC(=O)Nc2cccc3ccccc23)cn1` gave VDR inh -3%.
`C=C(C)C(=O)Nc1ccc2c(c1)OCCOCCOCCO2` gave VDR inh 0%.
CN(C)C=NC(=O)c1cc(C(=O)c2ccc(C(C)(C)C)cc2)c[nH]1 was read as VDR inh 5%.
For COc1ccc(S(=O)(=O)N2CCOCC2)cc1NC(=O)CO/N=C/c1ccccc1OC(F)F the results were VDR inh -14%.
COC1c2ccccc2C(=O)N1Cc1ccc(F)cc1 (centres undefined) was read as VDR inh -11%.
Screening O=[N+]([O-])c1ccc(OCc2cn([C@@H](CO)c3ccccc3)nn2)c(Br)c1 returned VDR inh -8%.
Screening CC(=O)c1sc(Nc2nc3ccc(F)cc3s2)nc1C returned VDR inh -11%.
Cc1ccc2nc3c(cc(C(=O)NC4CCCC4)c(=N)n3C(C)C)c(=O)n2c1 was read as VDR inh -10%.
`CCOc1cc(C2NC(=O)NC(c3ccccc3)=C2C(C)=O)ccc1OCC(N)=O` (centres undefined) gave VDR inh 8%.
For COc1ccc(Br)cc1CNC(=O)c1cnc2sc(N3CCC(C)CC3)nn2c1=O the results were VDR inh 8%.
`O=C(N/N=C/c1ccccc1)c1ccc(NC(=O)c2ccc(F)cc2)cc1` gave VDR inh -25%.
For COC(=O)C(CC(=O)c1ccc(Cl)cc1)c1ccccc1 (centres undefined) the results were VDR inh 11%.
O=C(COC(=O)c1c(Cl)cccc1Cl)NCc1cccs1 was read as VDR inh -22%.
CCCCCn1c(SCCc2ccccc2)nc2c1c(=O)[nH]c(=O)n2C was read as VDR inh 7%.
`CCCc1nnc(NC(=O)CN2CCN(C)CC2)s1` gave VDR inh 2%.
Screening Cc1cc(Nc2ccc(C)c(C)c2)n2nc(C)nc2n1 returned VDR inh -21%.
NC(=O)CSc1nnc(-c2cc(-c3ccc(Cl)cc3)nc3ccccc23)o1 was read as VDR inh 7%.
Screening C=CCSC(=S)NC1CCS(=O)(=O)C1 (centres undefined) returned VDR inh -17%.
`O=C(COC(=O)/C=C/c1ccccc1)NCc1ccc2c(c1)OCO2` gave VDR inh 12%.
`CCOc1ccc(N2C(=O)CC(N3CCN(C(=O)c4ccco4)CC3)C2=O)cc1` (centres undefined) gave VDR inh -8%.
Screening O=C(Cn1nnc(-c2ccccc2)n1)NCc1cccs1 returned VDR inh 10%.
C#CCOCCOCCOCCNc1nc(N2CCN(C(=O)Cn3cc(CC(C)O)nn3)CC2)nc(N2CCN(C(=O)[C@H](C)n3cc(CCC(=O)O)nn3)CC2)n1 (some centres undefined) was read as VDR inh 5%.

Molecules listed so far containing a furan ring, fused or not:
For O=C(OCc1nc2ccccc2s1)c1ccc(Br)o1 the results were VDR inh 19%.
`Cc1ccc(-c2noc(CCC(=O)NCc3ccco3)n2)cc1` gave VDR inh 0%.
`C#CCN1C(=O)S/C(=C\c2ccc(-c3ccc(C(=O)O)cc3C)o2)C1=O` gave VDR inh -12%.
For Cc1ccc2c(C)c(C(=O)N3CCN(c4cnccn4)CC3)oc2c1C the results were VDR inh -10%.
`CCOc1ccc(N2C(=O)CC(N3CCN(C(=O)c4ccco4)CC3)C2=O)cc1` (centres undefined) gave VDR inh -8%.

(next part)
`OCC[C@@H]1C[C@H](O)[C@@H](O)[C@@]2(CCCCO2)O1` gave VDR inh -16%.
O=C(Cc1cccc(NC(=O)C2CCCN(C(=O)C3CCC3)C2)c1)Nc1ccc(C(=O)N2CCCCC2)cc1 (centres undefined) was read as VDR inh -8%.
For COc1ccc(NS(=O)(=O)c2cc(NC(=O)C3=NN(c4ccccc4)C(=O)CC3)ccc2C)cc1 the results were VDR inh 8%.
Screening O=C(CCCC(=O)N1CCN(c2cccc(Cl)c2)CC1)c1ccccc1 returned VDR inh -22%.
For Cc1cc(C)cc(C(=O)NN2CCOCC2)c1 the results were VDR inh -7%.
`CCCCn1c(NCc2ccncc2)nc2ccccc21` gave VDR inh -7%.
For CCOC(=O)C1=C(C)NC(=O)NC1c1ccc(OC)c(CN2CCOCC2)c1 (centres undefined) the results were VDR inh 0%.
`COc1ccc(C(=O)CSc2nc3ccccc3n2CC(=O)c2ccccc2)cc1` gave VDR inh -1%.
For Oc1ccc(N2CCN(C(c3cccnc3)c3nnnn3Cc3ccccc3)CC2)cc1 (centres undefined) the results were VDR inh 20%.
Screening COc1ccc(-c2cc(C(F)(F)F)n3nc(C(=O)N4CCN(C(=O)c5ccco5)CC4)cc3n2)cc1 returned VDR inh -1%.
For Cc1ccccc1N1CCN(c2ccc(NC(=O)C3CCCCC3C(=O)O)cc2)CC1 (centres undefined) the results were VDR inh 10%.
Screening COc1ccc(C2/C(=C(/O)c3ccccc3)C(=O)C(=O)N2C)c(OC)c1 (centres undefined) returned VDR inh -8%.
`C=C[C@]1(C)C=C2CCC3[C@](C)(CCC[C@@]3(C)C(=O)O)C2CC1` (some centres undefined) gave VDR inh -12%.
CCn1c(=O)c([N+](=O)[O-])c(NC2CCS(=O)(=O)C2)c2ccccc21 (centres undefined) was read as VDR inh 10%.
Screening CC(C(=O)Nc1ccc(OCc2ccccc2)cc1)N1CCCC1 (centres undefined) returned VDR inh -17%.
`CCn1c(=O)c([N+](=O)[O-])c(NCc2ccco2)c2ccccc21` gave VDR inh -1%.
Screening COc1c2ccoc2nc2c(OC)c(OCC(O)C(C)(C)O)ccc12 (centres undefined) returned VDR inh 8%.
Screening O=C(CCCCCn1c(=O)[nH]c2ccccc2c1=O)N1CCN(c2cccc(C(F)(F)F)c2)CC1 returned VDR inh 14%.
Cc1cc(N2CC(C(=O)NCc3cccs3)CC2=O)ccc1C(C)C (centres undefined) was read as VDR inh 0%.
For Cc1ccc(OCC(=O)c2cc(C)n(Cc3cccs3)c2C)c([N+](=O)[O-])n1 the results were VDR inh -2%.
Screening CCC(=O)O[C@@]1(C(=O)CCl)[C@@H](C)C[C@@H]2[C@H]3CCC4=CC(=O)C=C[C@@]4(C)[C@]3(F)[C@@H](O)C[C@@]21C returned VDR inh 1%.
CCCN(C(=O)c1cc2c(=O)oc3ccccc3c2s1)c1ccccc1C was read as VDR inh 5%.
CC(=O)N(Cc1ccccc1)Cc1cn(CCC#N)nc1-c1cccc([N+](=O)[O-])c1 was read as VDR inh 12%.
Screening COc1cccc(CNC(=O)c2ccc(CS(=O)(=O)Cc3ccccc3C)o2)c1 returned VDR inh 6%.
`COC(=O)C(C)(C)c1cccnc1C#N` gave VDR inh 10%.
CC(=O)c1sc2nc(C)cc(C)c2c1N was read as VDR inh 11%.
CCOC(=O)CNC(=O)c1cnc(Nc2ccccc2OC)c2ccccc12 was read as VDR inh 14%.
Screening COc1cccc(N(C(=O)c2snc(C(N)=O)c2N)C(C(=O)NCC2CCCO2)c2c[nH]c3ccccc23)c1 (centres undefined) returned VDR inh 8%.
CCCCNC(=O)c1ccccc1Cl was read as VDR inh -2%.
Screening CCCc1nc2ccc(NC(=O)c3ccco3)cc2c(=O)n1Cc1ccccc1Cl returned VDR inh 8%.
COc1ccc(C(C(=O)NC2CCCC2)N(C(=O)Cc2cccs2)C2CC2)cc1OC (centres undefined) was read as VDR inh 12%.
CCOc1ccc(NC(=O)C(=O)NCC2CCCN2CC)cc1 (centres undefined) was read as VDR inh -2%.
`COC(=O)c1c(Cl)c2n3ccccc3c(C)c(-c3ccccc3)c-2c1C(=O)OC` gave VDR inh -20%.
O=C(CN(Cc1cccs1)C(=O)c1csnn1)NC1CCCC1 was read as VDR inh -21%.
CCNc1nc(Oc2ccc(F)cc2)cc(C(F)(F)F)n1 was read as VDR inh 9%.

No new results follow: an excerpt of the list.
`COC(=O)C(C)(C)c1cccnc1C#N` gave VDR inh 10%.
CC(=O)c1sc2nc(C)cc(C)c2c1N was read as VDR inh 11%.
CCOC(=O)CNC(=O)c1cnc(Nc2ccccc2OC)c2ccccc12 was read as VDR inh 14%.
Screening COc1cccc(N(C(=O)c2snc(C(N)=O)c2N)C(C(=O)NCC2CCCO2)c2c[nH]c3ccccc23)c1 (centres undefined) returned VDR inh 8%.
